A1 inh: caspase 3/7 activation in MEF A1-2A-BIM cells, primary screen, A1 inhibitor project, cell-based, luminescence, HTS; Caspase-Glo 3/7 luminescence, 3 h; percent of clofoctol response, vehicle zero; caspase activation, % (no concentration beside the values); actives 0.066% (n = 330,000); AID 2462, 2010;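 active = over half of replicate activation scores above 10%, or exactly half above 10 with the replicate mean above 10; inconclusive = replicate mean below 10 yet half the replicates above 10; inactive = over half of replicates below 10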;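 also: wells of about 30 µL received 50 nL stock; many hits fall short of the cut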
Beta2AR agonist: beta2AR agonists driving receptor internalization, primary screen, cell-based, FAP fluorogen, flow cytometry. Am2.2-beta2AR cells; reference of the scale not given here. AID 504454, 2011. response, % (no concentration beside the values). actives 0.43% (n = 340,000);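 active = response above a set limit, near 3 SD of response in nonfluorescent compounds, cut at about 42% in these data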;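 also: stock transfer was 100 nL into about 11 µL; a reference agonist was the positive control; negative values mostly stem from fluorescent compounds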
Target sequence (P07550 whole entry, looked up): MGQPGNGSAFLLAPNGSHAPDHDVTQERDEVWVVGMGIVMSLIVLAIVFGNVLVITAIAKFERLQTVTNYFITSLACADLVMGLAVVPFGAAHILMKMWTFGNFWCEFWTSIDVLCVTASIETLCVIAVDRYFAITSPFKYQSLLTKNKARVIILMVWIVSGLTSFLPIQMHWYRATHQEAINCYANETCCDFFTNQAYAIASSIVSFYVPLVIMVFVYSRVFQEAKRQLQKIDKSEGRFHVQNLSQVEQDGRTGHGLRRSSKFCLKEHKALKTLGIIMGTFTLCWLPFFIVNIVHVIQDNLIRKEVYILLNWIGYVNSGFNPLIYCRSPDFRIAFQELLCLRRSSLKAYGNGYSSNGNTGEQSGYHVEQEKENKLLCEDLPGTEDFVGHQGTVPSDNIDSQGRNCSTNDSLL
LANA-H2B inh: blockers of LANA interaction with H2A/H2B – biochemical, FP readout, HTS, primary screen. inhibition, % (no concentration beside the values). actives 0.6% (n = 320,000). AID 2629, 2010. cell-free LANA-H2A/H2B peptide, fluorescence polarization; in the data active = inhibition mostly above about 10%, no sharp cut-off; inactive = mostly below about 6.7%;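 also: stock transfer was 7.5 nL into about 10 µL; 0% = median of vehicle wells and 100% = median of positive control wells; one replicate is shown; the record names a cut of 25% in any replicate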
Beta apoptosis: inhibitors of cytokine-induced beta cell apoptosis, primary screen, luminescence; INS-1E cytokine-induced death, ATP luminescence, 48 h; percent of positive-control rescue, neutral wells zero; protection from apoptosis, % (concentration not given with the values); actives 0.8% (n = 300,000); AID 435005, 2010;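 active = all replicates at 75% or more, or half of them and the mean; inconclusive = half reach 75% but not the mean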;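 also: 0% = cytokine-treated negative control wells and 100% = positive control rescue; higher means more ATP so stronger rescue from cytokine killing; wells of about 40 µL received 100 nL stock; the first replicate is given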
Calb FLC: C. albicans growth inhibition with fluconazole, primary screen, CaCi-2 strain, Alamar Blue fluorescence; C. albicans CaCi-2 (fluconazole-resistant clinical isolate) + fluconazole, 48 h; growth inhibition, % (no concentration beside the values); actives 0.57% (n = 300,000);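 active = most replicates above 75%; inconclusive = exactly half above 75%; inactive = most below 75%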;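 also: all wells also contain fluconazole at 8 µg/ml as a sub-toxic cotreatment; 0% = median of DMSO wells and 100% = median of geldanamycin control wells; wells of about 8 µL received 7.5 nL stock; the first replicate is given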
T cruzi repl: inhibitors of intracellular T. cruzi growth, primary screen, luminescence, NIH3T3 host cells | inhibition, % (test concentration not listed) | actives 1.4% (n = 300,000) | AID 1885, 2009 | T. cruzi beta-gal in NIH3T3, 90 h;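 active = mean inhibition across valid replicates above about 55%, limit read from the data; inconclusive = mean below that limit but half or more replicates reach it; inactive = mean below it, under half of replicates reach it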;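 also: signal also drops with host cell toxicity which is not excluded here; 0% = plate median of DMSO wells and 100% = zero luminescence signal; higher percent means less beta-gal luminescence so fewer parasites; stock transfer was 50 nL into about 50 µL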
ALR H2O2 inh: inhibitors of human ALR sulfhydryl oxidase, primary screen, biochemical, H2O2 detection, HRP-luminol luminescence, single point | inhibition, % (test concentration not listed) | purified ALR, DTT oxidation | AID 485317, 2010 | FAD-linked sulfhydryl oxidase ALR (Homo sapiens), P55789 | actives 3.8% (n = 290,000);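 active = mean and each replicate at 75% or more; inconclusive = only one of the two met; inactive = neither met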;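 also: stock transfer was 7.5 nL into about 7.5 µL; 0% = neutral wells and 100% = wells with inactivated enzyme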
Target sequence (P55789 whole entry, looked up): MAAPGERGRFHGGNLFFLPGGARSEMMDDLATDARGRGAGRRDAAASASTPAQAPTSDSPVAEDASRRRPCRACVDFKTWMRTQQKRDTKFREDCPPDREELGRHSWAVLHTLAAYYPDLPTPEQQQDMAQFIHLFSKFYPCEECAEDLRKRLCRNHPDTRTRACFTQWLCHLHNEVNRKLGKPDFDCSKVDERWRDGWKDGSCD
rRNA inh HTS: reduced GFP signal of wild-type E. coli, primary screen, bacterial rRNA inhibitor project, GFP/RFP fluorescence, OD600, single point | E. coli WT GFP vs humanized-ribosome RFP mutants, 24 h; hits give low values; DMSO median 0, no signal -100 | GFP signal change (wild-type ribosome), % (test concentration not listed) | actives 1.6% (n = 350,000) | AID 720706, 2013;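 active = significant combined selectivity score with lowered wild-type GFP, culture density cut under 30%, mutant RFP and density less affected; inactive = any of these conditions unmet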; also: one replicate is shown; some compounds called inactive have numbers as strong as hits
rRNA inh HTS OD600: second read-out of rRNA inh HTS, no call of its own (marks repeat the call); OD600 change, %; measured here: OD600 growth;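 optical density of the mix in the first replicate; 0 = DMSO median and -100 = no signal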
rRNA inh HTS RFP: also measured in rRNA inh HTS; calls as there; RFP signal change, %; measured here: RFP humanized mutant strains;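 first replicate; 0 = DMSO median and -100 = no signal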
Numbers without * were called inactive; ? = inconclusive; / = not tested or not shown.

SMILES | A1 inh | Beta2AR agonist | LANA-H2B inh | Beta apoptosis | Calb FLC | T cruzi repl | ALR H2O2 inh | rRNA inh HTS | rRNA inh HTS OD600 | rRNA inh HTS RFP
Cc1c(NCc2ccncc2)cccc1C(=O)O | 0.1 | 4.2 | 0.8 | 1.5 | -5.7 | 0.5 | -0.8 | 9.1 | 11.1 | 2.5
C/C(=N\NC(=O)c1c(Cl)cnn1C)c1cccc(NC(=O)C(C)C)c1 | 0.6 | 4.5 | 2.6 | -3.8 | 5.0 | 20.5 | -3.3 | -0.1 | 6.5 | -2.5
COc1ccc(OCCOc2ccc(N(C)S(=O)(=O)c3ccccc3)cc2)cc1 | -0.4 | 1.1 | -1.1 | -6.1 | / | / | 1.7 | 2.5 | 0.6 | -0.7
CCCN(CC1CC1)c1nc(N)c2c(N)nc(OC)cc2c1C#N | -0.1 | 16.1 | 5.6 | 5.8 | 47.1 | 27.5 | 9.2 | / | / | /
CCN(C(=O)COC(=O)c1ccccc1Nc1cccc(C)c1C)C1CCS(=O)(=O)C1 (centres undefined) | -0.3 | 18.4 | -0.9 | -8.1 | -5.7 | 5.5 | 0.2 | / | / | /
CN(C)C(=O)CSc1ncnc2scc(-c3ccccc3)c12 | -0.2 | -20.3 | 6.1 | -3.2 | -7.7 | 4.7 | -9.6 | -9.6 | -18.7 | -2.8
O=C(CN(C(=O)CCC(=O)Nc1ccccn1)c1ccc(F)cc1)NCc1ccco1 | 0.0 | -4.8 | -0.7 | -3.2 | 4.9 | 21.2 | -2.4 | 0.7 | 3.8 | 0.1
CN(C)C(=S)Nc1ccc(Br)cc1Cl | 0.2 | 3.6 | -1.6 | -0.2 | -13.7 | -20.0 | -6.9 | -21.3* | -3.4* | -5.3*
COc1ccc(S(=O)(=O)Nc2cc(Cl)ccc2OC)cc1 | 0.8 | 5.8 | 3.4 | -0.5 | 2.8 | -29.0 | 4.4 | / | / | /
CC(NS(=O)(=O)c1ccc(CCC(=O)N2CCN(C)CC2)cc1)c1ccccc1 (centres undefined) | 0.1 | 2.8 | -1.5 | / | -0.8 | 72.0* | -3.7 | / | / | /

Overlap with the part before: 2 entries, then new ones.
SMILES | A1 inh | Beta2AR agonist | LANA-H2B inh | Beta apoptosis | Calb FLC | T cruzi repl | ALR H2O2 inh | rRNA inh HTS | rRNA inh HTS OD600 | rRNA inh HTS RFP
COc1ccc(S(=O)(=O)Nc2cc(Cl)ccc2OC)cc1 | 0.8 | 5.8 | 3.4 | -0.5 | 2.8 | -29.0 | 4.4 | / | / | /
CC(NS(=O)(=O)c1ccc(CCC(=O)N2CCN(C)CC2)cc1)c1ccccc1 (centres undefined) | 0.1 | 2.8 | -1.5 | / | -0.8 | 72.0* | -3.7 | / | / | /
CCOC(=O)C1CCN(S(=O)(=O)c2ccc3c(c2)N(C(C)=O)CCO3)CC1 | -1.1 | 10.8 | -0.3 | 2.3 | -1.1 | 0.6 | 25.7 | 3.0 | 3.6 | 0.1
CCc1cc2ccccc2nc1SCC(=O)Nc1cc(OC)c(OC)cc1C(=O)O | -0.3 | 0.0 | 0.5 | 6.8 | 6.9 | -5.5 | 2.3 | / | / | /
CCC(C)C(=O)Nc1cc(Cl)ccc1C(=O)O (centres undefined) | -0.1 | 1.4 | 6.0 | / | 2.4 | -3.0 | -2.2 | -7.9 | -14.2 | -0.6
Cc1ccc(C(=O)N2CCCCC2C(=O)O)cc1S(=O)(=O)N1CCCCC1 (centres undefined) | -1.3 | -3.9 | -2.7 | -3.5 | / | / | -10.3 | 2.6 | 5.4 | -0.5
COc1ccc(CCNC(=O)C2CCC(=O)N2Cc2ccccc2Cl)cc1OC (centres undefined) | 0.7 | -2.8 | 0.1 | -3.9 | -3.8 | 2.0 | -4.8 | 6.2 | 5.5 | 1.3
Cc1occc1C(=O)NNC(=O)C(c1ccccc1)c1ccccc1 | 0.9 | 3.5 | -2.0 | -2.7 | -3.4 | -16.7 | 2.5 | / | / | /
CCOc1ccc(Nc2nc3ccccc3n2C)cc1 | -3.0 | -19.4 | 5.0 | 7.0 | -4.0 | -16.4 | 93.6* | 1.3 | -4.6 | 0.2
O=C(O)CCC(NS(=O)(=O)c1ccc(N2CCCC2=O)cc1)C(=O)O (centres undefined) | 0.4 | -4.9 | 5.2 | 0.3 | -5.3 | -15.8 | 3.2 | 17.6 | 15.1 | -0.5
O=S(=O)(NCCCO)c1ccc2c(c1)Cc1cc(S(=O)(=O)NCCCO)ccc1-2 | -0.1 | 2.5 | -1.2 | -2.2 | 1.4 | -9.9 | -6.3 | / | / | /
CCCCCCOC(=O)Cc1c(C)nc(N)[nH]c1=O | -0.7 | -8.9 | -5.5 | -7.8 | 0.9 | 3.4 | -4.9 | 7.9 | 2.9 | -2.9
Cc1ccccc1OC(C)C(=O)N1CCC(Cc2ccccc2)CC1 (centres undefined) | 1.0 | -4.5 | 3.3 | -11.2 | 4.9 | 18.0 | -2.2 | -23.2 | -30.7 | 2.9
COc1cccc(NC(=O)c2ccc(NC(=O)C(C)(C)C)cc2)c1 | -7.6 | -0.5 | 0.4 | -5.0 | -23.8 | 7.3 | 5.4 | 1.7 | -5.6 | -1.8
COc1ccc(NC(=O)c2cc(S(=O)(=O)N3CCc4ccccc43)cn2C)cc1 | 1.0 | 17.0 | -0.8 | -4.9 | 4.0 | 0.0 | -4.1 | 3.2 | 8.3 | 3.1
CCC(=O)Oc1ccc(C(=O)Nc2ccccc2C(=O)NCC(C)C)cc1 | -0.2 | -11.1 | -1.6 | -2.0 | 16.8 | -13.6 | -5.0 | -6.9 | -3.5 | -3.5
O=C(COC(=O)c1cccc2ccccc12)Nc1ncc(C(F)(F)F)cc1Cl | -0.6 | 6.3 | -2.8 | -5.1 | ? | -7.4 | -1.9 | / | / | /
COc1ccc(CNC(=O)c2cccc(S(=O)(=O)N3CCCCC3)c2)cc1OC | -0.8 | -4.8 | -3.3 | 11.5 | / | / | -1.9 | -47.2 | -60.5 | -20.8
COc1ccc(-c2ccc(CCC(=O)O)o2)cc1 | 1.4 | 11.0 | -0.9 | -1.3 | 4.5 | -0.7 | 20.7 | 21.8 | 14.3 | 8.7
O=C(NCCc1ccccc1)C1CCN(C(=O)Nc2ccccc2)CC1 | 0.6 | 0.4 | 6.1 | -7.5 | -2.7 | -10.0 | -6.6 | 5.5 | 8.0 | -1.1
O=C(CCl)N=c1sccn1Cc1cccc2ccccc12 | / | 49.6* | / | / | -30.3 | 50.6 | / | -1.4 | -7.9 | 0.7
Cc1cc(C)nc(NC(=O)c2c(F)c(F)c(F)c(C(=O)Nc3cc(C)cc(C)n3)c2F)c1 | -0.6 | 5.0 | 3.4 | -59.0 | 17.5 | -15.0 | 73.3 | 7.6 | 2.4 | 3.8
NS(=O)(=O)c1cc(C(=O)NCCc2ccccn2)ccc1Cl | 0.1 | -3.0 | 7.1 | -1.8 | -1.8 | 8.9 | -6.4 | 6.8 | 8.5 | 1.0
COc1ccc(CNC(=O)COC(=O)CC2CC3CCC2C3)cc1OC (centres undefined) | 0.3 | 0.5 | 1.3 | -3.8 | -2.3 | 5.0 | 10.5 | -5.6 | -6.1 | -7.4
O=c1c2ccccc2nc(COc2ccccc2)n1/N=C/c1ccc(O)c(O)c1 | 0.2 | 7.1 | 1.4 | 5.7 | -0.8 | 2.3 | 97.8* | -30.6* | 5.5* | 9.3*
COc1ccc(/C=N/NC(=O)c2nc(-c3ccccc3)n(-c3ccccc3)n2)cc1 | -0.2 | 2.8 | 7.3 | -6.0 | 53.8 | 8.8 | 3.4 | -17.7 | -29.4 | 1.6
Cc1ccc2[nH]c(=O)c(CN(CCCN(C)C)C(=S)NCCc3ccccc3)cc2c1 | 0.0 | 17.8 | -3.7 | -0.5 | 10.1 | 84.4* | 0.7 | -36.5* | -23.9* | -1.9*
COc1ccc(-c2noc(CCCC(=O)N3CCOCC3)n2)cc1 | -0.4 | 2.3 | -6.1 | -0.5 | -2.0 | -8.9 | -1.3 | 17.7 | 6.7 | 5.6
CCOc1ccc(NC(=O)C2CCCN(S(=O)(=O)c3cccc4nsnc34)C2)cc1 (centres undefined) | 0.0 | -6.8 | -1.6 | -22.3 | 1.0 | 4.3 | -0.2 | -2.1 | 7.7 | 1.6
Cc1ccc(Nc2nc3ccccc3c(=O)s2)cc1C | -0.6 | 7.4 | 3.4 | -2.5 | -8.2 | -26.9 | / | 9.7 | 4.8 | 3.3
CCC1=Nc2cc(C(=O)NCCN3CCOCC3)ccc2Sc2ccccc21 | 1.3 | -2.3 | 5.4 | -15.8 | 4.3 | 3.2 | -7.5 | 1.3 | -9.9 | 0.4
Cc1ccc(NC(=S)N(C)Cc2cn(C)c3ccccc23)cc1 | 0.1 | 6.9 | 1.0 | 5.6 | -3.9 | -32.9 | -0.6 | / | / | /
CCOC(=O)C1=C(C)N(c2ccccc2)C(=O)C1CC(=O)O (centres undefined) | 1.0 | -6.3 | -2.1 | 3.2 | 12.7 | -3.4 | 12.4 | / | / | /
Nc1c(C(=O)CSc2nc(-c3ccccc3)cs2)c(=O)[nH]c(=O)n1C1CC1 | -0.8 | -6.0 | 2.2 | -3.1 | / | / | 1.6 | 20.0 | 18.4 | 0.3
CC(=O)CCc1oc2ccc(NC(C)=O)cc2c1-c1ccc(C)o1 | 1.2 | -9.2 | 5.3 | -4.9 | 15.4 | -3.0 | -6.2 | / | / | /
COc1ccc(C(=O)C2CCCN(C(=O)CCC3=NNC(=O)CC3)C2)c(C)c1 (centres undefined) | 0.5 | 3.2 | 11.6 | -0.9 | -11.6 | 4.5 | 4.6 | 12.4 | 11.8 | 2.3
CCS(=O)(=O)c1nc(S(=O)(=O)c2ccc(Cl)cc2)c(N2CCOCC2)s1 | -0.2 | -7.5 | -2.1 | -6.4 | -4.9 | -6.2 | -1.7 | 14.9 | 12.7 | -0.4
O=C(NCc1cccnc1)c1ccc(-c2cc3ccccc3oc2=O)cc1 | -3.9 | -8.5 | 0.6 | 101.2* | -2.0 | -3.7 | -11.7 | 5.7 | 11.3 | 12.7
COc1ccc(NS(=O)(=O)c2cc(NC(=O)[C@@H](NC(N)=O)C(C)C)ccc2C)cc1 | 0.1 | -0.8 | 1.1 | -2.9 | 0.1 | -12.2 | -15.0 | 1.3 | -4.3 | -1.5
O=C(CC(c1ccccc1)c1cc(Br)ccc1O)NCCCN1CCOCC1 (centres undefined) | 0.2 | -4.9 | -3.6 | -1.2 | -3.9 | -20.1 | 7.1 | 6.7 | 0.7 | -1.3
O=C1CC(C(=O)N2CCN(c3ccccc3Cl)CC2)CN1Cc1ccccc1 (centres undefined) | 0.0 | -0.8 | -4.6 | 3.1 | / | / | -0.8 | 1.0 | -6.0 | 1.5
O=C(O)Cc1csc2ccccc12 | 0.1 | 5.7 | -0.4 | -0.5 | -7.0 | -4.2 | -3.6 | / | / | /

Source: PubChem (several laboratories)

Not all compounds are listed; rates above refer to the full screens.
